# FGF22 binding = binders of human FGF22 protein, primary screen, FGF22 synaptogenesis inhibitor project, biophysical, thermal shift, single point; calls only at 9.99 µM; 1.5% of 340,000 active; recombinant FGF22 thermal shift, SYPRO orange fluorescence; percent of sucrose octasulfate shift, DMSO zero;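 active means melting point raised past a set limit in the mean and every replicate; three in four hits are not shown here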
# Target sequence (Q9HCT0 whole entry, looked up): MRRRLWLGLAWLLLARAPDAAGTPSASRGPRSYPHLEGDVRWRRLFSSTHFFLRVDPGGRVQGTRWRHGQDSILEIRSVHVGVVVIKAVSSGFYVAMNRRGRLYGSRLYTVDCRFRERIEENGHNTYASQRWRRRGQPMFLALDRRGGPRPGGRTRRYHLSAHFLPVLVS
# MLL AF4-AF9 inh = inhibitors of AF4 peptide binding to AF9, primary screen, biochemical, AlphaScreen, biotin-AF4 peptide, FLAG-AF9, single point. Protein AF-9 (Homo sapiens), P42568. inhibition, % at 10 µM. 0.47% of 350,000 active. AID 651704, 2012;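 active means every replicate reaching a set inhibition limit, whatever the replicate mean, cut at about 25% in these data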;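 further: 0% = plate neutral control median and 100% = total signal loss; the record names both 10 and 1 µM as test concentration; the first replicate is given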
# Target sequence (P42568 whole entry, looked up): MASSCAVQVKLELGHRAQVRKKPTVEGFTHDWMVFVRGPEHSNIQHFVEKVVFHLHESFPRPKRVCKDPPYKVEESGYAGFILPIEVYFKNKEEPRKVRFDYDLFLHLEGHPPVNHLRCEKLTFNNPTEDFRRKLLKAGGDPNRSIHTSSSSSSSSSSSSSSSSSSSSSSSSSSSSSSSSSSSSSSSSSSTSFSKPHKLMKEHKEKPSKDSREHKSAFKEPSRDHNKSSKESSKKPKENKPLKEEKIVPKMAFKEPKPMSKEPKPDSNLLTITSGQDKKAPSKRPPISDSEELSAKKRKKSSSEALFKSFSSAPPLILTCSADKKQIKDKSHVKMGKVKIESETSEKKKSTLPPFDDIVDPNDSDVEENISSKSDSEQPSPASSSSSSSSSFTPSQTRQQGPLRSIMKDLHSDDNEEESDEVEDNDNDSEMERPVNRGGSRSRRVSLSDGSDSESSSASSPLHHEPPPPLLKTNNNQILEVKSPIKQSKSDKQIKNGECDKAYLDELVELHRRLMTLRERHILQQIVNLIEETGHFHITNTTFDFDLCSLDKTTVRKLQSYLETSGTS
# rRNA inh HTS = reduced GFP signal of wild-type E. coli, primary screen, bacterial rRNA inhibitor project, GFP/RFP fluorescence, OD600, single point; E. coli WT GFP vs humanized-ribosome RFP mutants, 24 h; hits give low values; DMSO median 0, no signal -100; GFP signal change (wild-type ribosome), % (test concentration not listed); 1.6% of 350,000 active;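 active means significant combined selectivity score with lowered wild-type GFP, culture density cut under 30%, mutant RFP and density less affected; inactive means any of these conditions unmet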; further: one replicate is shown; some compounds called inactive have numbers as strong as hits
# rRNA inh HTS OD600 = recorded beside rRNA inh HTS, whose call it bears; OD600 change, %; measured here: OD600 growth;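 optical density of the mix in the first replicate; 0 = DMSO median and -100 = no signal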
# rRNA inh HTS RFP = second read-out of rRNA inh HTS, no call of its own (marks repeat the call); RFP signal change, %; measured here: RFP humanized mutant strains;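 first replicate; 0 = DMSO median and -100 = no signal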
# The depositor's hits bear a star; i = inactive; + = active, no number; & = joins results of further samples. Not all compounds are listed (hit frequency here may not be typical).
compound	rRNA inh HTS RFP	rRNA inh HTS OD600	MLL AF4-AF9 inh	rRNA inh HTS	FGF22 binding
Cc1ccccc1S(=O)(=O)N1C[C@@H](O)COC[C@H]2O[C@H](CC(=O)N3CCN(C)CC3)CC[C@@H]21	-2.9	-0.6	-2.8	-0.8	i
COCCNc1nc(NCc2ccccc2OC)c2sccc2n1	3.9	-55.0	2.2	-9.7	i
Cc1noc(C)c1S(=O)(=O)Nc1ccc2c(c1)C(=O)N([C@H](C)CO)C[C@H](C)[C@H](CN(C)Cc1ccccc1)OCCCC[C@@H](C)O2	0.0	-6.1	0.9	0.7	i
C[C@H](CO)N1C[C@H](C)[C@H](CN(C)C(=O)c2ccncc2)OCc2ccccc2-c2c(n(C)c3ccccc23)C1=O	-2.6&-4.1	4.0&-3.0	2.6&-0.7	2.1&-1.6	i
C[C@@H]1CCCCO[C@@H](CN(C)C(=O)Nc2ccc(C(F)(F)F)cc2)[C@H](C)CN([C@H](C)CO)C(=O)c2cc(NS(=O)(=O)c3ccc(Cl)cc3)ccc2O1	-2.2	3.2	-1.9	2.4	i
O=C(Nc1ccc(F)cc1)N[C@H]1C=C[C@@H](CC(=O)N2CCCCC2)O[C@H]1CO	-1.2	-5.5	0.4	-1.5	i
COc1ccc(CN2C[C@@H](O)COC[C@@H]3O[C@H](CC(=O)NCc4ccccc4Cl)CC[C@H]32)cc1	1.9	-18.0	3.3	-3.6	i
CO[C@@H]1CN(C)C(=O)c2cc(NC(C)=O)ccc2OC[C@@H](C)N(C(=O)c2cnccn2)C[C@@H]1C	-1.2	0.4	3.5	0.8	i
C[C@@H]1CN([C@H](C)CO)C(=O)Cc2cc(NC(=O)Nc3ccc(C(F)(F)F)cc3)ccc2O[C@@H]1CN(C)S(=O)(=O)c1cccs1	-2.2	16.2	1.4	2.4	i
C[C@@H]1CN([C@@H](C)CO)C(=O)Cc2cc(NC(=O)NC3CCCCC3)ccc2O[C@@H]1CN(C)S(=O)(=O)c1ccc(F)cc1	-2.3	-2.5	0.8	-0.6	i
CNC[C@@H]1Oc2cc(C#CC3CCCCC3)ccc2S(=O)(=O)N([C@@H](C)CO)C[C@@H]1C	8.2	4.3	-1.4	6.4	i
C[C@@H]1CCCCO[C@@H](CN(C)C(=O)C2CCCCC2)[C@@H](C)CN([C@H](C)CO)C(=O)c2cc(NC(=O)c3ccccc3)ccc2O1	0.2	0.4	0.2	3.4	i
S=C(NN=C(c1ccccc1)c1ccccn1)N(Cc1ccccn1)Cc1ccccn1	6.2	-4.4	53.2*	-14.2	i
Cc1noc(C)c1S(=O)(=O)Nc1ccc2c(c1)C(=O)N([C@@H](C)CO)C[C@@H](C)[C@@H](CN(C)Cc1ccc(C(=O)Nc3ccccc3N)cc1)O2	2.1	-1.7	1.0	1.7	i
C[C@H]1CN([C@@H](C)CO)S(=O)(=O)c2ccc(C3=CCCCC3)cc2O[C@H]1CN(C)C(=O)CN(C)C	-0.4	3.7	-7.9	2.1	i
CC(=O)Nc1cc2c(cc1[N+](=O)[O-])-c1ccc(F)cc1C2	0.7	14.0	0.5	27.6	i
COc1ccc(C(=O)NCC2CCN(C(=O)C(=O)c3cc4ccccc4o3)CC2)c(OC)c1	10.3*	-13.4*	-10.5	-13.2*	i
O=C(N[C@H]1CC[C@@H](CCn2cc(C3(O)CCCC3)nn2)O[C@@H]1CO)c1ccccc1F	0.7	5.4	-0.2	1.0	i
C[C@H](O)[C@@H]1CN2CCc3c([nH]c4ccccc34)[C@@H]2C[C@@H]1N(C)Cc1cc(Cl)cc(Cl)c1	4.6	4.4	6.2	-2.4	i
Cc1c(C(=O)NNC(=O)c2csc(N3CCOCC3)n2)oc2ccc(Br)cc12	0.4	-3.5	-2.4	2.5	i
CC(=O)N1CCCC(C)(C(=O)N(C)Cc2cccc3ccccc23)C1 (centres undefined)	4.6	4.9	-6.5	8.7	i
C[C@@H](c1ccccc1)N1C[C@H](COCc2ccccc2)Oc2cc(N3CC[C@H](N(C)C)C3)ccc2S1(=O)=O	10.3	-40.5	25.9*	-26.4	i
COC(=O)C[C@@H]1CC[C@H]2[C@H](COc3ccc(NC(=O)Nc4cccc(Cl)c4)cc3C(=O)N2C)O1	4.9	-19.4	-0.1	-1.9	i
O=C(C[C@H]1C[C@@H]2c3cc(NC(=O)NC4CCCC4)ccc3O[C@@H]2[C@@H](CO)O1)NCc1ccccc1F	-0.5	-13.6	-0.8	-4.9	i
CO[C@H]1CN(C)C(=O)c2ccc(NC(=O)Nc3cc(Cl)cc(Cl)c3)cc2OC[C@H](C)NC[C@@H]1C	-15.3	-81.4	12.7	-59.5	i
N#Cc1cccc(-c2ccc3c(c2)[C@H]2[C@H](CCN2C(=O)c2ccc4c(c2)OCO4)[C@H](CO)N3)c1	-0.1	3.1	6.0	-1.8	i
COc1cccc(C(O)c2ncc(-c3ccc(C(F)(F)F)cc3)[nH]2)c1 (centres undefined)	0.5	-23.5	0.3	-7.7	i
O=C(Nc1ccc2c(c1)[C@@H]1C[C@@H](CC(=O)N3CCOCC3)O[C@@H](CO)[C@@H]1O2)Nc1ccccc1F	0.3	6.3	1.0	0.1	i
CC(C)NC(=O)N[C@@H]1CC[C@@H](CC(=O)NCc2ccc(Oc3ccccc3)cc2)O[C@@H]1CO	1.3	-2.8	-2.6	-1.2	i
Cc1noc(C)c1NC(=O)N(C)C[C@@H]1Oc2ccc(NC(=O)NC(C)C)cc2C(=O)N([C@@H](C)CO)C[C@@H]1C	-2.4	9.1	-2.6	3.8	i
CCCNC(=O)C[C@@H]1CC[C@@H]2[C@H](COC[C@H](O)CN2S(=O)(=O)c2ccc(Oc3ccccc3)cc2)O1	0.1	-18.1	1.2	0.2	i
COc1ccc(C2OC(CCc3ccccc3)CC3=C2C(=O)OC(C)(C)O3)cc1 (centres undefined)	-3.1	-18.3	-0.8	-6.4	i
O=C(c1cccnc1)N1CC(=O)N2[C@H](C1)[C@@H](c1ccc(C#CCC3CCCC3)cc1)[C@@H]2CO	6.1	-60.1	4.3	-25.4	i
C[C@@H](NC(=O)C[C@@H]1C=C[C@H](NC(=O)Cc2ccccn2)[C@H](CO)O1)c1ccccc1	2.1	-4.7	0.1	-0.7	i
Cc1ccc(F)cc1C(=O)N1CCCC(c2cc(C(=O)NCc3ccc(F)cc3)no2)C1 (centres undefined)	0.6	-15.2	-1.7	-4.3	i
C[C@H](CO)N1C[C@H](C)[C@H](CN(C)Cc2ccc3c(c2)OCO3)Oc2ccc(NS(C)(=O)=O)cc2CC1=O	1.6	5.6	0.8	1.3	i
Cc1noc(C)c1NC(=O)N[C@H]1C=C[C@H](CC(=O)NCc2ccc(Cl)c(Cl)c2)O[C@@H]1CO	2.4	-1.0	-3.3	-1.5	i
COc1ccc(S(=O)(=O)Nc2ccc3c(c2)C(=O)N([C@@H](C)CO)C[C@H](C)[C@H](CN(C)Cc2ccc(C(F)(F)F)cc2)O3)cc1	12.2	-30.3	2.5	3.0	i
C[C@@H]1CN([C@H](C)CO)C(=O)c2cc(NC(=O)Nc3ccc4c(c3)OCO4)ccc2O[C@@H]1CN(C)Cc1ccc(Oc2ccccc2)cc1	7.1	3.7	5.8	1.6	i
C[C@@H]1CCCCO[C@H](CN(C)Cc2ccc(C(=O)O)cc2)[C@@H](C)CN([C@H](C)CO)C(=O)c2cc(NC(=O)C3CCCCC3)ccc2O1	-2.1	7.7	-1.2	6.0	i

# As a working copy, some entries already given.
compound	rRNA inh HTS RFP	rRNA inh HTS OD600	MLL AF4-AF9 inh	rRNA inh HTS	FGF22 binding
O=C(c1cccnc1)N1CC(=O)N2[C@H](C1)[C@@H](c1ccc(C#CCC3CCCC3)cc1)[C@@H]2CO	6.1	-60.1	4.3	-25.4	i
C[C@@H](NC(=O)C[C@@H]1C=C[C@H](NC(=O)Cc2ccccn2)[C@H](CO)O1)c1ccccc1	2.1	-4.7	0.1	-0.7	i

# (continued)
compound	rRNA inh HTS RFP	rRNA inh HTS OD600	MLL AF4-AF9 inh	rRNA inh HTS	FGF22 binding
C[C@H](CO)N1C[C@H](C)[C@H](CN(C)Cc2ccc(C(=O)O)cc2)Oc2cc(/C=C/c3ccccc3)ccc2S1(=O)=O	1.6	-3.1	8.3	-9.0	i
C[C@@H]1CCCCO[C@H](CN(C)Cc2ccc(C(F)(F)F)cc2)[C@@H](C)CN([C@@H](C)CO)C(=O)c2cc(NC(=O)Nc3ccc4c(c3)OCO4)ccc2O1	1.8	-2.8	3.4	1.5	i
Nc1nc2c(ncn2[C@@H]2O[C@H](CNC(=O)[C@H](N)C3CCCCC3)[C@@H](O)[C@H]2O)c(=O)[nH]1	-7.2	0.1	-6.2	2.0	i
CCCNC(=O)N1C[C@@H]2[C@H](c3ccccc31)[C@H](CO)N2Cc1ccc(F)cc1	0.8	-8.6	0.9	-1.5	+
CCCNC(=O)N[C@@H]1C=C[C@@H](CC(=O)NCCc2ccccc2)O[C@H]1CO	0.5	-3.7	0.1	-0.7	i
C[C@H]1CN([C@@H](C)CO)C(=O)c2cccc(NC(=O)Nc3ccc(F)cc3)c2O[C@H]1CN(C)Cc1ccc(Cl)c(Cl)c1	-0.1	-15.8	4.0	-4.3	i
CC(C)NC(=O)Nc1ccc2c(c1)C(=O)N([C@H](C)CO)C[C@H](C)[C@@H](CN(C)Cc1ccc(C(=O)O)cc1)OCCCC[C@@H](C)O2	-3.8	-4.6	0.6	2.7	i
COCCN(C[C@H]1[C@H](c2ccccc2)[C@@H](CO)N1C(C)=O)C(=O)c1ccccc1	-2.1	4.5	-0.8	1.9	i

# The final 2 entries of the part before come first, to join the parts:
compound	rRNA inh HTS RFP	rRNA inh HTS OD600	MLL AF4-AF9 inh	rRNA inh HTS	FGF22 binding
CC(C)NC(=O)Nc1ccc2c(c1)C(=O)N([C@H](C)CO)C[C@H](C)[C@@H](CN(C)Cc1ccc(C(=O)O)cc1)OCCCC[C@@H](C)O2	-3.8	-4.6	0.6	2.7	i
COCCN(C[C@H]1[C@H](c2ccccc2)[C@@H](CO)N1C(C)=O)C(=O)c1ccccc1	-2.1	4.5	-0.8	1.9	i
C[C@H]1CCCCO[C@H](CN(C)C(=O)CCCN(C)C)[C@@H](C)CN([C@@H](C)CO)C(=O)c2cc(NS(=O)(=O)c3ccc(F)cc3)ccc2O1	-1.1	0.6	-0.9	1.3	i
O=C(N[C@H]1CC[C@@H](CCNS(=O)(=O)c2cccc(Cl)c2)O[C@@H]1CO)c1ccccc1	-2.9	-0.6	-0.7	-1.7	i
CCCCn1nnnc1C(c1cc2ccccc2o1)N1CCCN(C(=O)OC(C)(C)C)CC1 (centres undefined)	1.6	17.0	-0.8	31.2	i
COc1ccc(NC(=O)Nc2ccc3c(c2)C(=O)N([C@H](C)CO)C[C@H](C)[C@@H](CN(C)C(=O)Nc2ccc(F)cc2)OCCCC[C@@H](C)O3)cc1	1.6	-0.7	-3.3	0.5	i
C[C@H](CO)N1C[C@H](C)[C@H](CN(C)C(=O)Nc2ccc3c(c2)OCO3)Oc2ncc(-c3cncnc3)cc2C1=O	-3.9	10.5	0.4	0.6	i
O=C(Cc1ccccn1)N1CC(=O)N2[C@H](C1)[C@@H](c1ccc(C#CCC3CCCC3)cc1)[C@@H]2CO	11.2	-45.9	6.3	-12.3	i
Cc1ccc(S(=O)(=O)N2C[C@H]3C(=O)C[C@@H](c4ccccc4C)N(S(=O)(=O)c4ccc(C)cc4)[C@H]3C[C@H]2c2ccccc2)cc1	0.3	13.1	-1.8	20.2	i
COCCN(C(=O)COC(=O)c1ccc(Br)o1)c1c(N)n(Cc2ccccc2)c(=O)[nH]c1=O	-3.7	12.4	1.8	3.0	i
CC(C)NC(=O)N(C)C[C@H]1Oc2ccc(NC(=O)C3CCCCC3)cc2CC(=O)N([C@@H](C)CO)C[C@H]1C	-1.6	-1.7	-3.3	0.5	i
C[C@@H]1CCCCO[C@H](CN(C)S(=O)(=O)c2cn(C)cn2)[C@@H](C)CN([C@H](C)CO)C(=O)c2cc(NC(=O)c3ccccc3)ccc2O1	-3.4	4.0	-5.0	2.6	i
COc1cncc(-c2cnc3sc(NCCc4ccccn4)nn23)c1	0.2	-5.0	-8.0	-11.7	i
O=C(C[C@@H]1CC[C@H]2[C@@H](COC[C@@H](O)CN2Cc2cc(F)ccc2F)O1)N1CCc2ccccc2C1	-6.1	-26.7	0.9	-2.8	i
O=C([C@H]1N[C@H]2c3ccc(-c4ccccc4)c(=O)n3C[C@H]2[C@@H]1CO)N1CCOCC1	-1.1	0.9	-2.0	3.0	i
CC(C)NC(=O)Nc1ccc2c(c1)C(=O)N([C@H](C)CO)C[C@@H](C)[C@@H](CN(C)Cc1ccc(C(F)(F)F)cc1)OCCCC[C@H](C)O2	5.5	-6.0	3.1	-2.3	i
CC(=O)NC(c1cccc(F)c1)c1nc(-c2ccoc2)cs1 (centres undefined)	0.0	17.9	12.6	15.8	i
CC(=O)N1[C@@H]2c3ccc(-c4cncnc4)c(=O)n3C[C@H]1[C@H](CO)[C@H]2C(=O)NC1Cc2ccccc2C1	-1.8	5.2	2.1	3.0	i

# High-throughput results as filed in PubChem.
